HIV Env fusion – inhibitors of HIV-1 Env-driven cell-cell fusion, primary screen, HeLa-JRFL effector, CEM21 target cells, luciferase | inhibition, % at 12.3 µM | hit rate 1.1% among 360,000;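 active means mean replicate inhibition score of at least 50 and every replicate individually at or above 50; inconclusive means only one of the two criteria met; inactive means mean below 50 and not all replicates reaching 50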;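 further: 0% = plate neutral controls and 100% = maraviroc near 300 nM; one replicate is shown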
UUG fidelity – modulators of yeast start codon fidelity, primary screen, whole organism, S. cerevisiae, single point, plate reader; S. cerevisiae UUG-firefly luciferase reporter, luminescence/redox ratio; activity score, % at 18.7 µM; hit rate 0.13% among 350,000;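 active means replicate mean at a twofold rise or more, about +100% in these data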;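 further: firefly luciferase made from a UUG start codon reports start codon fidelity; reporter light over untreated wells divided by growth signal over untreated wells; some hits fall short of that in this replicate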
Active calls of the source: *; ? = inconclusive; [ ] = another dose, or the depositor's remark.

SMILES | HIV Env fusion | UUG fidelity
C[C@H](CO)N1C[C@H](C)[C@@H](CN(C)C)Oc2cc(-c3cccc(C#N)c3)ccc2S1(=O)=O | 25.9[16.7 µM] | -7.5
C[C@@H]1CN([C@H](C)CO)C(=O)c2cccc(NC(=O)c3cnccn3)c2O[C@@H]1CN(C)Cc1ccccc1 | 2.4[16.7 µM] | -0.4
Cc1noc(C)c1NC(=O)N(C)C[C@H]1OCCCC[C@@H](C)Oc2ccc(NC(=O)NC3CCCCC3)cc2C(=O)N([C@@H](C)CO)C[C@H]1C | 16.1[16.7 µM] | -2.6
Cc1ccc(S(=O)(=O)Nc2ccc3c(c2)CC(=O)N([C@@H](C)CO)C[C@@H](C)[C@H](CN(C)C(=O)Nc2c(C)noc2C)O3)cc1 | -2.0[16.7 µM] | 6.8
C[C@@H]1CCCCO[C@H](CN(C)C(=O)NC2CCCCC2)[C@H](C)CN([C@@H](C)CO)C(=O)c2cc(NC(=O)Nc3ccc(F)cc3)ccc2O1 | 4.6[16.7 µM] | -4.3
CCCC#Cc1cnc2c(c1)C(=O)N([C@@H](C)CO)C[C@@H](C)[C@@H](CN(C)C(=O)c1ccc3c(c1)OCO3)O2 | -9.5[16.7 µM] | 6.1
Cc1ccccc1S(=O)(=O)N[C@H]1CC[C@@H](CCn2cc(Cc3ccccc3)nn2)O[C@@H]1CO | -1.5[16.7 µM] | -1.3
O=C(NCc1ccccc1)[C@@H]1c2ccccc2C(=O)N(CC23CC4CC(CC(C4)C2)C3)[C@H]1c1ccc(CO)cc1 | 18.2[16.7 µM] | 8.7
CCCN(C)C[C@H]1Oc2cc(/C=C/c3ccccc3)ccc2S(=O)(=O)N([C@H](C)CO)C[C@@H]1C | 10.6[16.7 µM] | 9.8
C[C@@H]1CN([C@H](C)CO)C(=O)c2cc(-c3cccc(C#N)c3)cnc2O[C@@H]1CN(C)C(=O)c1ccccn1 | 12.6[16.7 µM] | -4.5
C[C@H](CO)N1C[C@H](C)[C@@H](CN(C)S(=O)(=O)c2ccc(F)cc2)OCCCC[C@H](C)Oc2ccc(NC(=O)Nc3ccc4c(c3)OCO4)cc2C1=O | 0.3[16.7 µM] | -2.2
C[C@@H]1CN([C@@H](C)CO)C(=O)c2cc(NC(=O)NC3CCCCC3)ccc2O[C@@H](C)CCCCO[C@@H]1CN(C)Cc1ccc2c(c1)OCO2 | -44.4[16.7 µM] | 10.2
CCC(=O)N(C)C[C@@H]1Oc2cc(-c3ccccc3F)ccc2S(=O)(=O)N([C@H](C)CO)C[C@@H]1C | 12.6[16.7 µM] | -5.7
Cc1ccc(-c2ccc3c(c2)O[C@@H](CN(C)Cc2ccncc2)[C@@H](C)CN([C@H](C)CO)S3(=O)=O)cc1 | 22.4[16.7 µM] | -4.0
COC(=O)C(CC#Cc1ccc2c(c1)[C@]1(C(=O)N2)[C@H](c2ccccc2OCCO)N2[C@H](c3ccccc3)[C@H](c3ccccc3)OC(=O)[C@H]2[C@@H]1C(=O)N1CCc2cc(OC)c(OC)cc2C1)C(=O)OC | -18.6[16.7 µM] | 6.1

Random excerpt: six compounds from above, in no set order.
SMILES | HIV Env fusion | UUG fidelity
Cc1ccccc1S(=O)(=O)N[C@H]1CC[C@@H](CCn2cc(Cc3ccccc3)nn2)O[C@@H]1CO | -1.5[16.7 µM] | -1.3
C[C@@H]1CCCCO[C@H](CN(C)C(=O)NC2CCCCC2)[C@H](C)CN([C@@H](C)CO)C(=O)c2cc(NC(=O)Nc3ccc(F)cc3)ccc2O1 | 4.6[16.7 µM] | -4.3
Cc1ccc(-c2ccc3c(c2)O[C@@H](CN(C)Cc2ccncc2)[C@@H](C)CN([C@H](C)CO)S3(=O)=O)cc1 | 22.4[16.7 µM] | -4.0
C[C@H](CO)N1C[C@H](C)[C@@H](CN(C)S(=O)(=O)c2ccc(F)cc2)OCCCC[C@H](C)Oc2ccc(NC(=O)Nc3ccc4c(c3)OCO4)cc2C1=O | 0.3[16.7 µM] | -2.2
CCC(=O)N(C)C[C@@H]1Oc2cc(-c3ccccc3F)ccc2S(=O)(=O)N([C@H](C)CO)C[C@@H]1C | 12.6[16.7 µM] | -5.7
O=C(NCc1ccccc1)[C@@H]1c2ccccc2C(=O)N(CC23CC4CC(CC(C4)C2)C3)[C@H]1c1ccc(CO)cc1 | 18.2[16.7 µM] | 8.7

Continued:
SMILES | HIV Env fusion | UUG fidelity
COc1ccc(NC(=O)N(C)C[C@@H]2Oc3c(NS(=O)(=O)c4ccc(F)cc4)cccc3C(=O)N([C@@H](C)CO)C[C@@H]2C)cc1 | -13.6[16.7 µM] | -6.5
Cc1cc(C(=O)Nc2cccc3c2O[C@@H](CN(C)Cc2ccccc2)[C@H](C)CN([C@H](C)CO)C3=O)n(C)n1 | 17.7[16.7 µM] | -4.6
COCC(=O)N(C)C[C@@H]1Oc2ncc(-c3ccccc3F)cc2C(=O)N([C@H](C)CO)C[C@H]1C | -1.1[16.7 µM] | -2.0
Cc1noc(C)c1S(=O)(=O)N(C)C[C@H]1OCCCC[C@@H](C)Oc2ccc(N(C)C)cc2C(=O)N([C@H](C)CO)C[C@@H]1C | -4.1[16.7 µM] | -6.1
C[C@H](CO)N1C[C@H](C)[C@H](CN(C)Cc2ccc(C(=O)O)cc2)Oc2ncc(-c3ccc(C(=O)N(C)C)cc3)cc2C1=O | -29.9[16.7 µM] | -9.4
C[C@@H]1CCCCO[C@H](CN(C)C(=O)Nc2ccc(C(F)(F)F)cc2)[C@@H](C)CN([C@@H](C)CO)C(=O)c2cc(NS(=O)(=O)c3ccccc3)ccc2O1 | 45.7[16.7 µM] | 10.6
O=C(NCC[C@H]1CC[C@H](NC(=O)c2ccncc2)[C@H](CO)O1)Nc1ccc(Cl)cc1 | -8.8[16.7 µM] | -0.9
COCC(=O)Nc1ccc2c(c1)[C@H]1C[C@@H](CC(=O)NCc3ccc(-c4ccccc4)cc3)O[C@@H](CO)[C@H]1O2 | 5.7[16.7 µM] | -10.2
C[C@H]1CN([C@@H](C)CO)C(=O)c2cc(/C=C/c3ccccc3)cnc2O[C@@H]1CN(C)C(=O)c1ccc2c(c1)OCO2 | 20.7[16.7 µM] | 2.2
CN1C(=O)c2cc(NC(=O)C3CCOCC3)ccc2OC[C@H]2O[C@@H](CC(=O)NCc3ccccc3F)CC[C@H]21 | 3.3[16.7 µM] | 7.5
CN(C)C(=O)C[C@H]1CC[C@H]2[C@@H](COc3ccc(NC(=O)C4CCOCC4)cc3C(=O)N2C)O1 | 9.8[16.7 µM] | 5.4
Cc1ccc(S(=O)(=O)Nc2ccc3c(c2)C(=O)N([C@@H](C)CO)C[C@H](C)[C@@H](CN(C)Cc2ccccc2)OCCCC[C@@H](C)O3)cc1 | 15.0[16.7 µM] | 31.3
CCC(=O)N[C@@H]1CC[C@@H](CC(=O)NCC2CCCCC2)O[C@@H]1CO | 0.9[16.7 µM] | -4.0
Cc1noc(C)c1NC(=O)Nc1cccc2c1O[C@@H](CN(C)Cc1ccc(C(F)(F)F)cc1)[C@H](C)CN([C@@H](C)CO)C2=O | -151.3[16.7 µM] | 39.7
CCCC(O)C#Cc1cnc2c(c1)C(=O)N([C@H](C)CO)C[C@H](C)[C@H](CN(C)S(=O)(=O)c1cccc(OC)c1)O2 (stereo not given in full) | 0.2[16.7 µM] | 5.8
CCCNC(=O)C[C@H]1CC[C@@H]2[C@@H](COc3ccc(NS(=O)(=O)c4ccccc4C)cc3C(=O)N2C)O1 | -41.4[16.7 µM] | 7.8
O=C(NCC[C@H]1CC[C@@H](NC(=O)C2CC2)[C@H](CO)O1)Nc1ccc(Cl)cc1 | 5.1[16.7 µM] | -7.7
Cc1noc(C)c1S(=O)(=O)Nc1ccc2c(c1)CC(=O)N([C@@H](C)CO)C[C@H](C)[C@@H](CN(C)Cc1ccc3c(c1)OCO3)O2 | -15.8[16.7 µM] | -12.3
C[C@H](CO)N1C[C@H](C)[C@@H](CN(C)Cc2ccc(C(=O)O)cc2)Oc2ccc(N(C)C)cc2C1=O | -26.2[16.7 µM] | -6.0
CC(C)NC(=O)N(C)C[C@H]1OCCCC[C@@H](C)Oc2ccc(NC(=O)c3ccncc3)cc2C(=O)N([C@@H](C)CO)C[C@H]1C | -10.5[16.7 µM] | -11.4
CN(C)C(=O)C[C@H]1C=C[C@H](NC(=O)C2CC2)[C@H](CO)O1 | -9.8[16.7 µM] | -2.3
C[C@@H]1CCCCO[C@@H](CN(C)C(=O)CCC(F)(F)F)[C@H](C)CN([C@@H](C)CO)C(=O)c2cc(NC(=O)NC3CCCCC3)ccc2O1 | 13.0[16.7 µM] | 20.7
C[C@H](CO)N1C[C@H](C)[C@H](CN(C)Cc2cccc(C(F)(F)F)c2)Oc2ncc(-c3cc4ccccc4o3)cc2C1=O | -3.7[16.7 µM] | 17.0
C[C@H]1CN([C@@H](C)CO)C(=O)c2cc(NS(=O)(=O)c3cccs3)ccc2O[C@H]1CN(C)CC1CCCCC1 | 7.4[16.7 µM] | 3.9
Cc1noc(C)c1NC(=O)Nc1ccc2c(c1)C(=O)N([C@H](C)CO)C[C@H](C)[C@@H](CN(C)C(=O)c1ccccc1)OCCCC[C@H](C)O2 | 7.2[16.7 µM] | 10.6
Cc1ccccc1S(=O)(=O)NCC[C@@H]1CC[C@@H](NC(=O)Nc2cccc(Cl)c2)[C@@H](CO)O1 | 2.4[16.7 µM] | 3.1
CCNC(=O)C[C@@H]1CC[C@H]2[C@H](COc3ccc(NC(=O)c4ccc5c(c4)OCO5)cc3C(=O)N2C)O1 | 9.5[16.7 µM] | -2.8
COc1cccc(-c2cnc3c(c2)C(=O)N([C@H](C)CO)C[C@H](C)[C@H](CN(C)Cc2ccc(C(=O)O)cc2)O3)c1 | -2.4[16.7 µM] | 0.0
COc1cccc(C(=O)Nc2ccc3c(c2)OC[C@@H](C)N(C)C[C@@H](C)[C@@H](OC)CN(C)C3=O)c1 | -5.2[16.7 µM] | 4.4
CCC(=O)N[C@H]1CC[C@@H](CCn2cc(-c3cccc(OC)c3)nn2)O[C@H]1CO | 5.5[16.7 µM] | 0.6
CCCNC(=O)Nc1ccc2c(c1)C(=O)N(C)[C@H]1CC[C@@H](CC(=O)NC)O[C@@H]1CO2 | -23.8[16.7 µM] | -14.1
O=C(C[C@@H]1C=C[C@H](NC(=O)c2ccc(F)cc2)[C@@H](CO)O1)NCc1ccncn1 | 13.1[16.7 µM] | -6.0
Cc1noc(C)c1NC(=O)N(C)C[C@H]1Oc2ccc(NC(=O)Nc3ccc(F)cc3)cc2CC(=O)N([C@H](C)CO)C[C@@H]1C | -3.4[16.7 µM] | 15.8
COc1ccc(S(=O)(=O)N[C@@H]2CC[C@H](CC(=O)NCCc3ccncc3)O[C@@H]2CO)cc1 | 3.5[16.7 µM] | -9.2
C[C@@H]1CCCCO[C@H](CN(C)S(=O)(=O)c2ccccc2)[C@H](C)CN([C@@H](C)CO)C(=O)c2cc(NS(=O)(=O)c3cn(C)cn3)ccc2O1 | 1.8[16.7 µM] | 3.7
O=C(Nc1ccc2c(c1)[C@H]1C[C@H](CC(=O)N3CCCCC3)O[C@H](CO)[C@H]1O2)c1ccc2c(c1)OCO2 | -8.0[16.7 µM] | 6.8
CCC(=O)N(C)C[C@H]1Oc2cc(C#Cc3ccccn3)ccc2S(=O)(=O)N([C@H](C)CO)C[C@@H]1C | -76.6[16.7 µM] | 5.4
O=C(C[C@@H]1C=C[C@@H](NC(=O)c2cccc(F)c2)[C@H](CO)O1)NCc1ccc(Oc2ccccc2)cc1 | 18.2[16.7 µM] | -32.6
O=C(N[C@@H]1CC[C@@H](CCNS(=O)(=O)c2ccccc2Cl)O[C@H]1CO)c1ccc(F)cc1 | -2.5[16.7 µM] | 18.5
O=C(C[C@H]1C=C[C@H](NC(=O)Nc2ccccc2F)[C@@H](CO)O1)NCc1ccc(Cl)cc1 | 3.1[16.7 µM] | -13.3
C=CCNC(=O)[C@@H]1[C@H]2C(=O)O[C@H](c3ccccc3)[C@H](c3ccccc3)N2[C@H](c2ccccc2OCCO)[C@@]12C(=O)N(C(=O)OCCOC)c1ccccc12 | -37.5[16.7 µM] | -11.8
C[C@H](O)C#Cc1ccc2c(c1)O[C@H](CN(C)C(=O)CN(C)C)[C@@H](C)CN([C@@H](C)CO)S2(=O)=O | -7.8[16.7 µM] | 20.6
C[C@H]1CN([C@@H](C)CO)C(=O)Cc2cc(NC(=O)NC3CCCCC3)ccc2O[C@@H]1CN(C)Cc1ccc(-c2ccccc2)cc1 | ? | -9.7
C[C@H]1CN([C@@H](C)CO)C(=O)c2cc(-c3ccccc3)cnc2O[C@H]1CN(C)C(=O)Nc1ccc2c(c1)OCO2 | -4.0[16.7 µM] | -4.9
CC(C)C#Cc1ccc2c(c1)O[C@H](CN(C)C(=O)c1ccccc1)[C@H](C)CN([C@H](C)CO)S2(=O)=O | -28.6[16.7 µM] | 7.2
C[C@@H]1CN([C@H](C)CO)C(=O)c2cccc(N(C)C)c2O[C@@H]1CN(C)Cc1ccccc1 | 17.4[16.7 µM] | -7.0
O=C(C[C@H]1C=C[C@H](NC(=O)Nc2cc(F)ccc2F)[C@H](CO)O1)NCCCN1CCOCC1 | 4.4[16.7 µM] | -1.1
Cc1noc(C)c1NC(=O)N(C)C[C@@H]1Oc2ccc(NC(=O)NC(C)C)cc2CC(=O)N([C@@H](C)CO)C[C@H]1C | -4.4[16.7 µM] | -3.4
C[C@@H]1CCCCO[C@H](CN(C)C(=O)Cc2ccccc2)[C@H](C)CN([C@@H](C)CO)C(=O)c2cc(NS(=O)(=O)c3ccc(F)cc3)ccc2O1 | -33.7[16.7 µM] | 2.4
Cc1noc(C)c1S(=O)(=O)Nc1ccc2c(c1)CC(=O)N([C@@H](C)CO)C[C@@H](C)[C@@H](CN(C)S(C)(=O)=O)O2 | 1.2[16.7 µM] | 6.9
C[C@@H]1CN([C@@H](C)CO)C(=O)c2cc(C#CC3CC3)cnc2O[C@H]1CN(C)S(=O)(=O)c1cccc(F)c1 | 6.1[16.7 µM] | 32.6
CCCN1C[C@@H](C)[C@@H](OC)CN(C)C(=O)c2ccc(NC(=O)COC)cc2OC[C@@H]1C | -2.8[16.7 µM] | -12.7

Screens from PubChem BioAssay.

An excerpt; the hit share may differ from the screen's.
